# Cruzain Triton – qHTS Assay for Promiscuous and Specific Inhibitors of Cruzain (with detergent). Potency, µM, for inactives: max response, negative = inhibition, actives largely listed as inhibitors. Cruzipain (Trypanosoma cruzi), P25779. AID 1478, 2009. purified cruzain, Z-FR-AMC fluorescence, 0.01% Triton. 200,000 compounds, 0.43% hits;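 note: plate controls were neutral wells for no effect and buffer without enzyme for full effect; nearly all actives have a fitted effect of over 40% in size; top concentration of the series not given in the record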
# Target sequence (P25779 123-467 limits assumed): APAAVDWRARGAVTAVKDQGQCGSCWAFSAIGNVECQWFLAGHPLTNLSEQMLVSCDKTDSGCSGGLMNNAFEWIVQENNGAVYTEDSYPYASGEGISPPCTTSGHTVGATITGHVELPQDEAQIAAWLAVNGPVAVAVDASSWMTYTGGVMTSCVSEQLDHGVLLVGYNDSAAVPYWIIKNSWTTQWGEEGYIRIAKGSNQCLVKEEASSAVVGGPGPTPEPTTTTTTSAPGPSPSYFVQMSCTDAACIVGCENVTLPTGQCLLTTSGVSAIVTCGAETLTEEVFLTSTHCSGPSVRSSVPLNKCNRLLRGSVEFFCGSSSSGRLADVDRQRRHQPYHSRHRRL
#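 Steps: dispense cruzain (1.5 nM final) in acetate buffer pH 5.5 with DTT and 0.01% Triton X-100; pin-transfer compounds; incubate 15 min RT; add Z-FR-AMC (2 uM final); read fluorescence every 30 s, using the 60 s intensity change.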
# Cruzain inh noDet – qHTS Assay for Promiscuous and Specific Inhibitors of Cruzain (without detergent); purified cruzain, Z-FR-AMC fluorescence, no detergent; Potency, µM, for inactives: max response, negative = inhibition, hits mostly inhibitors; 200,000 compounds, 2.3% hits;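 note: plate controls were enzyme without inhibitor for no effect and buffer without enzyme for full effect; nearly all actives have a fitted effect of over 40% in size; top concentration of the series not given in the record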
#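 Detergent-free condition (0.00005% Triton X-100) in acetate buffer pH 5.5 with DTT. 1.5 nM enzyme and compound were pre-mixed 15 min, then 2 uM Z-FR-AMC substrate added; reaction progress from fluorescence change between first and third reads (60 s).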
# RE007 growth inh – qHTS Assay for Inhibitors of the HIV-1 protein Vpr | 360,000 compounds, 0.21% hits | Potency, µM (series often up to 92.2 µM), inactives show top-dose activity change, negative = less growth | S. pombe RE007 Vpr strain, BacTiter-Glo ATP luminescence, 24 h; control for the full effect not named in the record; active = well fitted falling curve with a large enough effect; inconclusive = small, poorly fitted or top-dose-only effect; inactive = no such curve, though single readings can be large or run the other way;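 note: % is set by controls: 0 for no effect and ±100 for the full control effect; nearly all actives have a fitted effect of over 50% in size; the assay follows cell death caused by Vpr and the record does not say whether a fall means rescue or toxicity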
#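 Fission yeast strain RE007, carrying one chromosomally integrated HIV-1 vpr copy, was seeded at OD 0.01 in PMG+AL medium with 23 nL pinned compound. After 24 h at 30 °C and 99% humidity, viability was read by BacTiter-Glo luminescence.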
# NS1 inh – qHTS Assay for Inhibitors of Influenza NS1 Protein Function; S. cerevisiae slowed by influenza A NS1, growth recovery by OD600; Potency, µM (top dose mostly 46.1 µM), for the others: top-dose activity, positive = more growth; 270,000 compounds, 0.4% hits; active means well fitted rising curve with a large enough effect; inconclusive means small, poorly fitted or top-dose-only effect; inactive means no such curve, though single readings can be large or run the other way; note: nearly all actives have a fitted effect of over 50% in size
#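 OD600 was taken as the measure of yeast growth restored by compound in an NS1-expressing S. cerevisiae strain. Cells had been washed out of glucose medium and diluted 1:100 into galactose -URA medium, pH 6.0.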
# 2A StopGo – High Throughput Screening for Foot and Mouth Disease Virus Antivirals; human cells with a luciferase reporter of 2A StopGo recoding; control for the full effect not named in the record; Potency, µM (top dose mostly 57.9 µM), without a hit: top-dose signal change, negative = less light; 410,000 compounds, 1.2% hits; active = well fitted falling curve with a large enough effect; inconclusive = small, poorly fitted or top-dose-only effect; inactive = no such curve, though single readings can be large or run the other way; tested in HEK293T cells; note: % is set by controls: 0 for no effect and ±100 for the full control effect; nearly all actives have a fitted effect of over 45% in size; luciferase light after 4 h
# Marburg entry inh – qHTS for inhibitors of binding or entry into cells for Marburg Virus; Marburg virus pseudotyped entry inhibition, cell reporter; control for the full effect not named in the record; about a third of the inactives were read at about 46 µM; Potency, µM (doses to about 37.8 µM), without a hit: at the highest dose activity change, negative = inhibition, usual class: inhibitors; 300,000 compounds, 1.8% hits; active = well fitted inhibition curve with a large enough effect; inconclusive = small, poorly fitted or top-dose-only effect, or effect the other way; inactive = flat fitted curve, though single readings scatter; tested in HEK293 cells; about a fifth of its hits are not listed in these tables; note: % is set by controls: 0 for no effect and ±100 for the full control effect; luciferase read-out
# LASV entry inh – qHTS for Inhibitors of binding or entry into cells for Lassa Virus; AID 540256, 2011; Lassa virus pseudotype entry inhibition, cell reporter; control for the full effect not named in the record; Potency, µM (top dose mostly 37.9 µM), for inactives: at the top dose activity change, negative = inhibition, most hits filed as inhibitors; 300,000 compounds, 1.2% hits; active means well fitted inhibition curve with a large enough effect; inconclusive means small, poorly fitted or top-dose-only effect, or effect the other way; inactive means flat fitted curve, though single readings scatter; tested in HEK293 cells; note: % is set by controls: 0 for no effect and ±100 for the full control effect; nearly all actives have a fitted effect of over 50% in size; luciferase read-out
# SARS PLpro yeast – qHTS of Yeast-based Assay for SARS-CoV PLP; S. cerevisiae expressing SARS-CoV PLpro, growth rescue; control for the full effect not named in the record; Potency, µM (doses to about 32.9 µM), for the others: at the top dose activity, positive = growth rescue; 330,000 compounds, 0.19% hits; AID 485353, 2010; active means well fitted rising curve with a large enough effect; inconclusive means small, poorly fitted or top-dose-only effect; inactive means no such curve, though single readings can be large or run the other way; note: 0% is about no effect; nearly all actives have a fitted effect of over 55% in size; growth read by luminescence after 48 h
# Active calls of the source: *; ? = inconclusive; nt = not tested or not shown; & = joins results of further samples; [ ] = dose if it differs, or a comment. Unless noted, calls come from the whole dose curve; as a rule, active = well fitted curve in the direction sought with a large enough effect; inconclusive = small, poorly fitted or top-dose-only effect, or another doubt; inactive = no such curve, though single readings can be large; an effect the other way counts as inactive or inconclusive. Potency is the fitted concentration of half-maximal effect.
SMILES,Cruzain Triton,Cruzain inh noDet,RE007 growth inh,NS1 inh,2A StopGo,Marburg entry inh,LASV entry inh,SARS PLpro yeast
N#CC1=C(c2ccccc2)/C(=C/c2ccccc2)OC1=O,-8.2%,19%,-19%,-3%,6.3µM*,?,-25%,-49%
Cc1ccc(S(=O)(=O)N2CCC(C(=O)OCC(=O)N3CC(C)CC(C)C3)CC2)cc1C (configuration not stated),nt,nt,6%,nt,-20%,?,9%,-4%
Cc1c(Cl)c(C(=O)Nc2nc3ccccc3n2CCN2CCCCC2)nn1C,0.6%,0%,nt,-1%,nt,nt,nt,1%
COc1cc(OC)cc(C(=O)N[C@H](C(=O)Nc2ccc(NC(C)=O)cc2)C(C)C)c1,nt,nt,-1%,7%,-2%,-7%[46.1 µM],3%,1%
COc1cccc(NC(=O)CSc2nnc(Cc3cccn3C)n2-c2ccc(F)cc2)c1,-4.6%,?,-7%,9%,-10%,0%,nt,-4%
COc1cccc2cc(C(=O)n3ccc(C)n3)c(=O)oc12,-3.5%,-13%,-11%,-12%,3%,?,15%,-1%
Cc1cc(C)n(-c2ccc(Oc3ccccc3)c(S(=O)(=O)O)c2)n1,nt,nt,-9%,nt,-6%,16%[46.1 µM],3%,-1%
C(=NOCc1ccccc1)c1cccnc1,nt,nt,8%,nt,69%[activator],?,21%,nt
C=CCn1c2ccccc2n2nc(C)c(=O)nc12,-1.2%,-5%,19%,1%,12%,0%,-29%,-10%
CCOc1ccccc1NC(=O)NNS(=O)(=O)c1cc(C)ccc1C,nt,nt,9%,9%,-9%,nt,nt,1%
COc1ccc(S(=O)(=O)NCCCN2CCCC2=O)cc1OC,nt,nt,20%,15%,4%,nt,nt,-7%
CCNC(=S)N/N=C/c1cn(Cc2ccccc2F)c2ccccc12,-1.6%,?,16%,?,?,?,?,30%
Cc1ccc(NC(=O)CSc2nc(N)cc(=O)[nH]2)cc1S(=O)(=O)N1CCCCC1,nt,nt,6%,nt,3%,10%[46.1 µM],1%[46.1 µM],-4%
O=C(O)c1cnc(-c2ccccc2)nc1Sc1ccc(Cl)cc1,-16%,?,-2%,-5%,38%[activator],25%,13%,-1%
O=C(CC1CC2CCC1C2)NC1CCCCCCC1 (configuration not stated),nt,nt,-4%,-4%,41%[activator],nt,nt,1%
CC1CCCN(C(=O)C2COc3ccccc3O2)C1 (configuration not stated),nt,nt,-2%,1%,0%,nt,nt,-2%
O=C(O)c1ccccc1NS(=O)(=O)c1ccc(N/N=C/c2cccc(O)c2O)c([N+](=O)[O-])c1,nt,nt,-25%,nt,-8%,-24%,10%,nt
CO/N=C(\C)c1ncc(C(F)(F)F)cc1N1CCOCC1,1.8%,-11%,1%,4%,-7%,-11%[46.1 µM],3%,6%
COc1ccc(NC(=O)C2CCN(C(=O)c3ccccc3)CC2)c(OC)c1,-0.1%,-9%,-8%,0%,21%,-2%,-2%,1%
COc1ccc(-c2cc(C(=O)NCc3cccnc3)no2)cc1,-1.2%,8%,10%,-3%,69%[activator],-10%,?,-4%

# Some of the entries above, reformatted.
# Results follow in this order: Cruzain Triton | Cruzain inh noDet | RE007 growth inh | NS1 inh | 2A StopGo | Marburg entry inh | LASV entry inh | SARS PLpro yeast
> CCNC(=S)N/N=C/c1cn(Cc2ccccc2F)c2ccccc12
 : -1.6% | ? | 16% | ? | ? | ? | ? | 30%
> O=C(CC1CC2CCC1C2)NC1CCCCCCC1 (configuration not stated)
 : nt | nt | -4% | -4% | 41%[activator] | nt | nt | 1%
> Cc1cc(C)n(-c2ccc(Oc3ccccc3)c(S(=O)(=O)O)c2)n1
 : nt | nt | -9% | nt | -6% | 16%[46.1 µM] | 3% | -1%
> CC1CCCN(C(=O)C2COc3ccccc3O2)C1 (configuration not stated)
 : nt | nt | -2% | 1% | 0% | nt | nt | -2%
> Cc1ccc(NC(=O)CSc2nc(N)cc(=O)[nH]2)cc1S(=O)(=O)N1CCCCC1
 : nt | nt | 6% | nt | 3% | 10%[46.1 µM] | 1%[46.1 µM] | -4%
> COc1ccc(NC(=O)C2CCN(C(=O)c3ccccc3)CC2)c(OC)c1
 : -0.1% | -9% | -8% | 0% | 21% | -2% | -2% | 1%

# Continued:
SMILES,Cruzain Triton,Cruzain inh noDet,RE007 growth inh,NS1 inh,2A StopGo,Marburg entry inh,LASV entry inh,SARS PLpro yeast
CCOc1ccc(CC(=O)Nc2nnc3n2CCS3)cc1,0.8%,8%,nt,nt,16%,nt,-9%[46.1 µM],nt
Cc1cc(NC(=O)CCNS(=O)(=O)c2cc(Br)cnc2N)ccc1Br,-4.8%,5%,-20%,-2%,nt,16%,-51%,5%
CC(C)Cc1nc(Cl)c(C#N)c2c1CCC2,nt,nt,2%,-5%,-23%,nt,nt,1%
CCCn1c(=O)c2ccccc2n2c(SCCOc3ccc(Cl)cc3)nnc12,2.0%,9%,8%,-7%,nt,1%,-7%,6%
COc1ccc(N(CCN2C(=O)c3ccccc3C2=O)C(=O)c2cccc([N+](=O)[O-])c2)cc1,-11%,1%,5%,14%,-15%,-4%,nt,?
O=C(CN(C(=O)c1csnn1)c1cccc(F)c1)NCc1ccc(F)cc1,nt,nt,7%,-3%,-8%,-4%[46.1 µM],-21%,1%
CCOC(=O)c1ccc(N2CCN(c3ccc(F)cc3)CC2)c(NC(=O)Nc2cccc(OC)c2)c1,1.2%&-0.4%,?,-1%,6%,?,-22%&-22%,?,-17%
O=[N+]([O-])c1ccc(NCCNS(=O)(=O)c2ccccc2)c(C(F)(F)F)c1,-12%,11%,6%,-51%,4%,?,-6%,-14%
Cc1ccc(OCc2nc(-c3ccc(-n4cccc4)cc3)no2)cc1C,4.3%,25µM*,-12%,13%,-18%,nt,nt,7%
CCc1ccc(-c2nc(-c3ccncc3)no2)cc1,-5.7%,1%,-6%,-45%,-73%,13µM*,?,-10%
NC(=O)CC1NC(=O)c2cc([N+](=O)[O-])cc(I)c2OCCC(C(N)=O)NC(=O)[C@@H]2CCCN2C1=O (some centres not stated),-0.9%,10%,11%,24%,-15%,5%,?,6%
O=C(N/N=C/c1cccnc1)c1ccc(NC(=O)c2ccc(Cl)cc2)cc1,nt,nt,1%,9%,1%,3%[46.1 µM],5%,0%
Cc1ccc(O)c(NC2=C(Cl)C(=O)N(Cc3ccccc3)C2=O)c1,nt,nt,4%,9%,7%,-46%[46.1 µM],2%[46.1 µM],-2%
CCOc1ccc(C(=O)NCC(=O)NNC(=O)CN(C)S(=O)(=O)c2ccc(Cl)cc2)cc1,nt,nt,-9%,nt,-19%,-1%,-3%[46.1 µM],-1%
COc1ccccc1CCNC(=O)C(=O)NCC1OCCN1C(=O)c1ccc(Cl)cc1 (configuration not stated),nt,nt,7%,-8%,?,nt,nt,3%
Cc1ccc(-n2nc(C)c(Sc3ccccc3[N+](=O)[O-])c2N)cc1,-6.8%,-22%,0%,-6%,-20%,?,?,-65%
COc1ccc(CC(=O)N2CCN(C)CC2)cc1,1.5%,-6%,17%,6%,47%[activator],?,-31%[14.3 µM],6%
COc1ccc(Nc2nc(C)nc3c2nnn3Cc2ccccc2)cc1OC,-7.3%,17%,15%,1%,?,?,1%,6%
Cc1nc(SCC(=O)NCCc2ccccc2)c2oc3ccccc3c2n1,9.7%,-3%,5%,6%,6%,7%,0%,6%
CCOC(=O)Cc1csc(SCC(=O)Nc2nccs2)n1,nt,nt,-5%,nt,-2%,?,-18%[46.1 µM],-2%

# Only SARS PLpro yeast, LASV entry inh and 2A StopGo, for four of the compounds above:
canonical_smiles,SARS PLpro yeast,LASV entry inh,2A StopGo
O=C(CN(C(=O)c1csnn1)c1cccc(F)c1)NCc1ccc(F)cc1,1%,-21%,-8%
CCOC(=O)c1ccc(N2CCN(c3ccc(F)cc3)CC2)c(NC(=O)Nc2cccc(OC)c2)c1,-17%,?,?
O=[N+]([O-])c1ccc(NCCNS(=O)(=O)c2ccccc2)c(C(F)(F)F)c1,-14%,-6%,4%
CCc1ccc(-c2nc(-c3ccncc3)no2)cc1,-10%,?,-73%

# Quoted from the listing:
# `COc1ccc(N(CCN2C(=O)c3ccccc3C2=O)C(=O)c2cccc([N+](=O)[O-])c2)cc1` – Cruzain inh noDet = 1%
# `O=C(O)c1ccccc1NS(=O)(=O)c1ccc(N/N=C/c2cccc(O)c2O)c([N+](=O)[O-])c1` – Marburg entry inh = -24%
# `CCc1ccc(-c2nc(-c3ccncc3)no2)cc1` – Cruzain inh noDet = 1%

# (listing goes on)
SMILES,Cruzain Triton,Cruzain inh noDet,RE007 growth inh,NS1 inh,2A StopGo,Marburg entry inh,LASV entry inh,SARS PLpro yeast
CC(C)(C)c1ccc(SCCc2ccncc2)cc1,nt,nt,3%,-40%,-7%,?,4%,-4%
CCOc1ccc(Br)cc1S(=O)(=O)Nc1ccc(NC(=O)c2ccccc2C)cc1,-2.2%,?,1%,6%,24%,?,?,18%
O=C(Nc1ccnn1C1CCN(Cc2ccccc2OCCO)CC1)c1cccc(F)c1,nt,nt,-2%,7%,-6%,-29%,-12%,3%
CC(=O)Nc1ccc(NC(=S)NC(=O)/C=C/c2ccc(Cl)cc2)cc1,nt,nt,-13%,nt,0%,?,-10%,1%
CCOC(=O)c1cc(-c2ccc(OC)cc2)n(CCC(=O)NCc2ccccc2OC)c1C,-4.8%,?,nt,nt,7%,nt,?,nt
FC(F)(F)c1ccccc1NC(=S)N1CCN(c2ncccn2)CC1,-0.8%,-1%,3%,3%,0%,?,?,4%
CC(c1c(O)c2ccccc2[nH]c1=O)C1(C)CCC(O)C(C)(C)O1 (configuration not stated),nt,nt,-10%,3%,-13%,nt,nt,0%
O=C(c1ccnc(Cl)c1)N1CCCC(Nc2ccc(F)cc2)C1 (configuration not stated),nt,nt,10%,1%,-22%,22%,10%,-4%
